2A StopGo: High Throughput Screening for Foot and Mouth Disease Virus Antivirals; AID 1159524, 2015; actives 1.2% (n = 410,000); human cells with a luciferase reporter of 2A StopGo recoding; control for the full effect not named in the record; Potency, µM (series often up to 57.9 µM), inactives show at the top dose signal change, negative = less light; active = well fitted falling curve with a large enough effect; inconclusive = small, poorly fitted or top-dose-only effect; inactive = no such curve, though single readings can be large or run the other way; tested in HEK293T cells; further: on the % scale 0 is the no-effect control and ±100 the full control effect; nearly all actives have a fitted effect of over 45% in size; luciferase light after 4 h
NS1 function inh: qHTS Assay for Inhibitors of Influenza NS1 Protein Function; S. cerevisiae slowed by influenza A NS1, growth recovery by OD600; Potency, µM (top dose mostly 46.1 µM), for inactives: top-dose activity, positive = more growth; actives 0.4% (n = 270,000); AID 2326, 2010; active means well fitted rising curve with a large enough effect; inconclusive means small, poorly fitted or top-dose-only effect; inactive means no such curve, though single readings can be large or run the other way; further: nearly all actives have a fitted effect of over 50% in size
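S. cerevisiae expressing influenza A NS1, grown in glucose, washed, then diluted 1:100 into pH 6.0 -URA galactose medium with 23 nl compound. Growth recovery read as OD600; NS1-free strain serves as control.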
Cruzain inh Det: qHTS Assay for Promiscuous and Specific Inhibitors of Cruzain (with detergent). actives 0.43% (n = 200,000). purified cruzain, Z-FR-AMC fluorescence, 0.01% Triton. Potency, µM, inactives show max response, negative = inhibition, actives largely listed as inhibitors. AID 1478, 2009;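 further: plate controls were neutral wells for no effect and buffer without enzyme for full effect; nearly all actives have a fitted effect of over 40% in size; top concentration of the series not given in the record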
Target sequence (P25779 123-467 limits assumed): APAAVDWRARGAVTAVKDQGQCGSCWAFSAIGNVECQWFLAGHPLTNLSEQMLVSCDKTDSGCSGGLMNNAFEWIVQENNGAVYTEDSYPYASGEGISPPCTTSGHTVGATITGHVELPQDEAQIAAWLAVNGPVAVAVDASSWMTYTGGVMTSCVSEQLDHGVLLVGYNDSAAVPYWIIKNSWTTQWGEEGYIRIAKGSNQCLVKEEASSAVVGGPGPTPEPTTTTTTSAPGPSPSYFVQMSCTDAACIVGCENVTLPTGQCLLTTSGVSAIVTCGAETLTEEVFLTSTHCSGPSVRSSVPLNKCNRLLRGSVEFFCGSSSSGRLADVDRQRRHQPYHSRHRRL
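Detergent-containing run (0.01% Triton X-100) in acetate buffer pH 5.5 with 5 mM DTT: enzyme at 1.5 nM final, 15 min compound preincubation at room temperature, then 2 uM Z-FR-AMC substrate. Activity taken as 60 s fluorescence increase at 360/450 nm.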
Lassa entry inh: qHTS for Inhibitors of binding or entry into cells for Lassa Virus | Lassa virus pseudotype entry inhibition, cell reporter; control for the full effect not named in the record | Potency, µM (series often up to 37.9 µM), inactives show top-dose activity change, negative = inhibition, usual class: inhibitors | actives 1.2% (n = 300,000); active means well fitted inhibition curve with a large enough effect; inconclusive means small, poorly fitted or top-dose-only effect, or effect the other way; inactive means flat fitted curve, though single readings scatter; tested in HEK293 cells; further: on the % scale 0 is the no-effect control and ±100 the full control effect; nearly all actives have a fitted effect of over 50% in size; luciferase read-out
Marburg entry inh: qHTS for inhibitors of binding or entry into cells for Marburg Virus; Marburg virus pseudotyped entry inhibition, cell reporter; control for the full effect not named in the record; about a third of the inactives were read at about 46 µM; Potency, µM (doses to about 37.8 µM), inactives show at the top dose activity change, negative = inhibition, hits mostly inhibitors; actives 1.8% (n = 300,000); active = well fitted inhibition curve with a large enough effect; inconclusive = small, poorly fitted or top-dose-only effect, or effect the other way; inactive = flat fitted curve, though single readings scatter; tested in HEK293 cells; about a fifth of its hits are not listed in these tables; further: on the % scale 0 is the no-effect control and ±100 the full control effect; luciferase read-out
RE007 growth inh: qHTS Assay for Inhibitors of the HIV-1 protein Vpr; Potency, µM (highest dose often 92.2 µM), without a hit: top-dose activity change, negative = less growth; S. pombe RE007 Vpr strain, BacTiter-Glo ATP luminescence, 24 h; control for the full effect not named in the record; actives 0.21% (n = 360,000); AID 651644, 2012; active = well fitted falling curve with a large enough effect; inconclusive = small, poorly fitted or top-dose-only effect; inactive = no such curve, though single readings can be large or run the other way;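 further: on the % scale 0 is the no-effect control and ±100 the full control effect; nearly all actives have a fitted effect of over 50% in size; the assay follows cell death caused by Vpr and the record does not say whether a fall means rescue or toxicity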
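Fission yeast strain RE007, carrying one chromosomally integrated HIV-1 vpr copy, was seeded at OD 0.01 in PMG+AL medium with 23 nL pinned compound. After 24 h at 30 °C and 99% humidity, viability was read by BacTiter-Glo luminescence.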
Cruzain noTriton: qHTS Assay for Promiscuous and Specific Inhibitors of Cruzain (without detergent); Cruzipain (Trypanosoma cruzi), P25779; purified cruzain, Z-FR-AMC fluorescence, no detergent; Potency, µM, inactives show max response, negative = inhibition, actives largely listed as inhibitors; actives 2.3% (n = 200,000); AID 1476, 2009;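 further: plate controls were enzyme without inhibitor for no effect and buffer without enzyme for full effect; nearly all actives have a fitted effect of over 40% in size; top concentration of the series not given in the record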
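Detergent-free condition (0.00005% Triton X-100) in acetate buffer pH 5.5 with DTT. 1.5 nM enzyme and compound were pre-mixed 15 min, then 2 uM Z-FR-AMC substrate added; reaction progress from fluorescence change between first and third reads (60 s).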
SARS PLP yeast: qHTS of Yeast-based Assay for SARS-CoV PLP. actives 0.19% (n = 330,000). Potency, µM (top dose mostly 32.9 µM), for the others: at the top dose activity, positive = growth rescue. S. cerevisiae expressing SARS-CoV PLpro, growth rescue; control for the full effect not named in the record; active means well fitted rising curve with a large enough effect; inconclusive means small, poorly fitted or top-dose-only effect; inactive means no such curve, though single readings can be large or run the other way; further: 0% is about no effect; nearly all actives have a fitted effect of over 55% in size; growth read by luminescence after 48 h
An asterisk follows results filed as active; u = inconclusive; x = not tested or not shown; [ ] = another dose, or the depositor's remark. Unless noted, the call rests on the fitted dose curve; in most records, active means well fitted curve in the direction sought with a large enough effect; inconclusive means small, poorly fitted or top-dose-only effect, or another doubt; inactive means no such curve, though single readings can be large; an effect the other way counts as inactive or inconclusive. Potency means the concentration at half of the fitted maximal effect.

SMILES | 2A StopGo | NS1 function inh | Cruzain inh Det | Lassa entry inh | Marburg entry inh | RE007 growth inh | Cruzain noTriton | SARS PLP yeast
O=C(Nc1ccc2nn(-c3ccccc3)nc2c1)c1cccnc1 | 4% | -80% | -8.9% | 22% | u | -25% | 17% | -26%
CCN(CC)CCCNC(=O)c1sc2nc(-c3ccc(F)cc3)cn2c1C | 0% | -10% | -11% | 0% | -22% | -4% | -10% | 1%
CC(=NCc1ccc2c(c1)OCO2)C1=C(O)c2ccccc2C1=O | x | -7% | -3.5% | -14% | -6% | 12% | 0% | -5%
Cc1ccnc(SCCn2c(Br)nc3c2c(=O)[nH]c(=O)n3C)n1 | -13% | -6% | 2.5% | -7% | -5% | 13% | 1% | 0%
CC(C)CC(c1nnnn1C1CCCC1)N1CCN(c2ccccc2F)CC1 (centres undefined) | -19% | -47% | 7.9% | u | u | 5% | -13% | 5%
CCCCc1cc(=O)oc2cc(OCC(=O)NC(Cc3c[nH]c4ccc(O)cc34)C(=O)O)ccc12 (centres undefined) | -10% | 29% | x | x | x | 12% | x | 12%
CCOC(=O)c1sc(NS(=O)(=O)c2cc(C)ccc2C)nc1C | 81%[activator] | -5% | -7.0% | -11% | u | 54% | u | -1%
COc1ccc(N2CC(O)(c3ccc(OC(F)F)cc3)[N+]3=C2CCCC3)cc1 (centres undefined) | -25% | x | x | 3% | u | -18% | x | -5%
Cc1cc(N2C(=O)C(O)=C(C(=O)c3cccs3)C2c2cccc(Br)c2)no1 (centres undefined) | 13% | 1% | x | -4% | -6%[46.1 µM] | -4% | x | 1%
CCc1ccccc1NC(=S)NC1CC2CCC(C1)N2Cc1ccco1 (centres undefined) | x | 7% | 0.5% | 22% | u | 4% | 9% | -3%
Clc1nc(Oc2ccccc2)nc(-c2cn(-c3ccccc3)c3ccccc23)n1 | -5% | 1% | x | x | x | -4% | x | 1%
O=C(N/N=C/c1ccc(OC2CSC2)cc1)c1ccccc1 | x | -6% | 1.8% | -8% | -23% | -3% | -3% | -3%
COc1ccc(-c2ccnc(SCC(=O)c3ccc(Cl)cc3)n2)cc1 | u | -3% | -1.3% | u | u | -14% | -3% | 23%
c1ccc(Cn2c(-c3ccccc3)nc3nc4ccccc4nc32)cc1 | -33% | 0% | -5.7% | 0% | -7% | -1% | -5% | 3%
O=C(NCCCN1CCOCC1)c1cc(-c2cccc(Br)c2)nc2ccccc12 | -18% | 13% | x | 30%[46.1 µM] | -21%[46.1 µM] | -5% | x | x
Cc1csc(/C(=N/OC(=O)c2ccco2)C(N)=O)n1 | -13% | 13% | x | x | x | -11% | x | 0%
COCC(C)n1c(SCC(=O)Nc2oc(C)c3c(C)n[nH]c(=O)c23)nc2ccccc2c1=O (centres undefined) | u | 0% | x | 19% | 5% | -12% | x | 0%
Cc1csc(NC(=O)C2CCC(C)(C(=O)O)C2(C)C)n1 (centres undefined) | 5% | -2% | 1.7% | -13% | 0% | 1% | 0% | -6%
Cc1nn(C)cc1CNC(=O)COc1ccc(Cl)cc1Cl | u | -1% | -1.6% | -4% | u | -5% | 16% | -12%
COc1ccc(C(=O)N[C@H](C(=O)NCc2cccs2)C(C)C)cc1 | -20% | 3% | x | x | x | 3% | x | 0%
CCC(=O)c1ccc(OCC(=O)N2CCc3cc(OC)c(OC)cc3C2)cc1 | -20% | -10% | 3.2% | -5% | u | 0% | -4% | -2%
Cc1cccc(-c2nc(CNC(=O)c3ccco3)cs2)c1 | 19% | -23% | x | -5%[46.1 µM] | -11%[46.1 µM] | -26% | x | 14%
COc1cccc2sc(NC(=O)c3ccc4c(c3)OCCO4)nc12 | 5% | x | -1.9% | 1%[46.1 µM] | x | x | -4% | x
Cc1ccn2c(=O)cc(CSc3nnc(NC(=O)c4ccccc4Cl)s3)nc2c1 | 11% | x | 1.8% | -8%[46.1 µM] | x | x | -15% | x
O=C(CCC1CCCC1)N[C@@H](Cc1ccc(O)cc1)C(=O)O | -3% | 5% | x | x | x | -1% | x | -1%

Overlap with the part before: 2 entries; new compounds follow.
SMILES | 2A StopGo | NS1 function inh | Cruzain inh Det | Lassa entry inh | Marburg entry inh | RE007 growth inh | Cruzain noTriton | SARS PLP yeast
Cc1ccn2c(=O)cc(CSc3nnc(NC(=O)c4ccccc4Cl)s3)nc2c1 | 11% | x | 1.8% | -8%[46.1 µM] | x | x | -15% | x
O=C(CCC1CCCC1)N[C@@H](Cc1ccc(O)cc1)C(=O)O | -3% | 5% | x | x | x | -1% | x | -1%
CCOC(=O)c1ccc(NC(=O)c2cccc(S(=O)(=O)N3CCOCC3)c2)cc1 | u | -9% | -6.9% | u | u | 13% | u | -2%
Cc1ccc(S(=O)(=O)NC2CC2)s1 | 4% | 22% | x | x | x | 12% | x | 4%
O=C(OCC(=O)N1CCN(c2ccccc2)CC1)c1cccs1 | 46%[activator] | x | x | -7%[46.1 µM] | u | -5% | x | 1%
N#Cc1ccc(Cl)cc1NC(=O)CNc1cccc(S(=O)(=O)N2CCCC2)c1 | -27% | x | x | -1% | -28%[46.1 µM] | 23% | x | -7%
O=C(CSc1ccc2nnc(-c3cccnc3)n2n1)c1ccccc1 | -2% | x | x | 3% | u | -1% | x | 1%
O=C(CSc1nc(-c2ccco2)cc(C(F)(F)F)n1)Nc1ccccc1C(F)(F)F | x | -1% | -24% | u | u | 0% | -7% | u
CSc1nc2c(c(=O)[nH]c(=O)n2C)n1Cc1ccc(Cl)cc1 | -13% | 20% | x | 0% | -5% | -17% | x | -3%
CC1(C)CC(CC(=O)Nc2ccccn2)C(=O)O1 (centres undefined) | 15% | 13% | 1.9% | 2% | 0% | 10% | -10% | -1%
CCOC(=O)[C@@H]1[C@H]2COc3ccc(Br)cc3[C@@H]2N2C(=O)N(c3ccc(OC)cc3)C(=O)[C@]12C | -5% | -7% | x | x | x | 7% | x | 1%
O=C(Nc1ncccn1)c1cccs1 | 18% | 0% | 0.7% | -3% | -2%[46.1 µM] | 13% | -12% | 0%
O=C(CSc1cccc[n+]1[O-])Nc1ccc2c(c1)OCO2 | 10% | x | x | 23%[46.1 µM] | 10%[46.1 µM] | 14% | x | 0%
Cc1cc(NC(=O)CSc2nc3ccccc3c(=O)n2Cc2ccccc2)no1 | -3% | 3% | 2.0% | -1% | -63% | -1% | 12% | 8%
COc1ccc(NC(=O)Cc2nnc(SCC(=O)NC3CCCCC3)n2C)cc1 | 4% | 10% | x | 0% | -2%[46.1 µM] | -5% | x | -1%
O=C(CN1C(=O)COc2ccccc21)Nc1ccccc1F | 12% | 0% | x | x | x | -5% | x | 1%
CCOC(=O)N1CCN(C(=S)NC(C)(C)C)CC1 | -18% | 13% | 3.1% | 3% | -19% | 1% | 9% | 11%
CCOC(=O)c1c(C)[nH]c(C)c1S(=O)(=O)N(C)CC(=O)N1CCN(c2ccccc2OC)CC1 | 0% | x | 1.4% | 9%[46.1 µM] | x | x | u | x
CCNc1nc(OCCNS(=O)(=O)c2cc(C)ccc2C)nc(N(C)C)n1 | 9% | 20% | 4.5% | 2% | -5% | -9% | 10% | 0%
CC1(NC(=S)Nc2ccc3ccccc3c2)CCS(=O)(=O)C1 (centres undefined) | 1% | -33% | x | -4%[46.1 µM] | u | -2% | x | -2%
C=CCOc1ccc(/C=N\NC(N)=S)cc1 | 30%[activator] | -8% | x | x | x | -6% | x | 1%
O=c1c2ccccc2ncn1CCCOc1ccccc1[N+](=O)[O-] | 21% | -14% | 1.0% | 8% | 2% | 1% | -11% | -2%
CCOc1ccccc1Nc1nc2c(S(=O)(=O)c3ccc(C)cc3)nnn2c2ccsc12 | -6% | x | -0.1% | 3%[46.1 µM] | x | x | 17% | x
CCc1ccc2c(CN3CCOCC3)cc(=O)oc2c1 | 28% | 4% | x | 9%[46.1 µM] | 3%[46.1 µM] | -9% | x | -5%
Cc1ccc(CCNC(=O)c2ccc(Cn3c(=O)c4cccn4c4cccnc43)cc2)cc1 | -4% | x | -0.4% | -8%[46.1 µM] | x | x | -20% | x
Cc1ccc(-c2noc(-c3ccccc3C(=O)N3CCN(C)CC3)n2)cc1 | 21% | 9% | 8.9% | 27% | 0% | -10% | 5% | 10%

Single values from the list.
Value of Cc1ccnc(SCCn2c(Br)nc3c2c(=O)[nH]c(=O)n3C)n1 in 2A StopGo: -13%
Value of CSc1nc2c(c(=O)[nH]c(=O)n2C)n1Cc1ccc(Cl)cc1 in RE007 growth inh: -17%
Value of O=C(OCC(=O)N1CCN(c2ccccc2)CC1)c1cccs1 in RE007 growth inh: -5%
Value of O=C(Nc1ccc2nn(-c3ccccc3)nc2c1)c1cccnc1 in Cruzain noTriton: 17%
Value of Cc1cc(NC(=O)CSc2nc3ccccc3c(=O)n2Cc2ccccc2)no1 in Cruzain inh Det: 2.0%
Value of CCN(CC)CCCNC(=O)c1sc2nc(-c3ccc(F)cc3)cn2c1C in Marburg entry inh: -22%
Value of COc1ccc(NC(=O)Cc2nnc(SCC(=O)NC3CCCCC3)n2C)cc1 in Marburg entry inh: -2%[46.1 µM]

Bioassay records from PubChem BioAssay.
